Compound activity deposited in PubChem BioAssay by Johns Hopkins Ion Channel Center.
KCNQ2 enhance: potentiators of rat KCNQ2 potassium channel. CHO-K1 KCNQ2, FluxOR thallium flux fluorescence; hits give high values. B-score at 10 µM. 310,000 tested, 0.54% active. AID 2239, 2010;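 active means fluorescence ratio B-score at least 3 SD of library B-scores, with initial fluorescence B-score within 3 SD, cut at about 5.3 in these data; same plate scores as AID 2156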;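 further: B-score of peak minus minimum over baseline fluorescence ratio after K+ and Tl+ stimulus; positive B-score means potentiation of KCNQ2 with more thallium influx and brighter signal; only the inactives scoring about 0 or higher are listed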
Target sequence (O88943 whole entry, looked up): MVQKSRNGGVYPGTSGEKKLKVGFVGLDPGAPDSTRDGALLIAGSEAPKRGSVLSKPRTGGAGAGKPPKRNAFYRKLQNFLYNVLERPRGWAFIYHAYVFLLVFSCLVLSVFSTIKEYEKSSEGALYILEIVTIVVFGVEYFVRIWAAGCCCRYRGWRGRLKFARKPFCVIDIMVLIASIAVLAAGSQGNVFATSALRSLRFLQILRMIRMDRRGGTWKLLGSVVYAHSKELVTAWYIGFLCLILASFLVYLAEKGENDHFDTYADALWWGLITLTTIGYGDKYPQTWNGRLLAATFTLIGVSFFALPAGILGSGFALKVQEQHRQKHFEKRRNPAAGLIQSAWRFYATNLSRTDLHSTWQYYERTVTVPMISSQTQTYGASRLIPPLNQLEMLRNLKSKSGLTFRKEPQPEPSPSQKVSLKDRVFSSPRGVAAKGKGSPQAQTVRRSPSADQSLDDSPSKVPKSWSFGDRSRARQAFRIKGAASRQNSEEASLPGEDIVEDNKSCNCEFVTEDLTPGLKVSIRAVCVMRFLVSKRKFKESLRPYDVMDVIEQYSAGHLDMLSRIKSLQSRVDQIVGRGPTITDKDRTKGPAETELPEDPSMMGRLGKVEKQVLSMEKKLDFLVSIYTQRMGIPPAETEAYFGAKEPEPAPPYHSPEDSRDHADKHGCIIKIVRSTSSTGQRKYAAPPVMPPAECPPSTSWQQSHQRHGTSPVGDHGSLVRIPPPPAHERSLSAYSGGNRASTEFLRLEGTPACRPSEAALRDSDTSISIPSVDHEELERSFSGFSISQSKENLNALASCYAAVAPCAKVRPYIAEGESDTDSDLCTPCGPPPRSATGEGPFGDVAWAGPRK
KCNQ2 enhance baseline: also measured in KCNQ2 enhance; calls as there; B-score; compound at 10 µM; measured here: initial fluorescence intensity artifact check;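 brightness before thallium and not channel activity; 0 = typical well and far values either way flag optical interference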
* hit, by the source's call. An excerpt (hit frequency here may not be typical).

SMILES	KCNQ2 enhance	KCNQ2 enhance baseline
Cc1ccc(C#CC(C)(O)C(C)(C)C)cn1 (stereo not given)	0.54	2.7
CN(CC(=O)Nc1ccc(F)cc1)C(=O)COC(=O)/C=C/c1ccc(OC(F)F)cc1	2.1	0.79
NS(=O)(=O)c1ccc(NC(=S)NCc2ccc3c(c2)OCO3)cc1	1.4	0.86
c1ccc(N2CCN(c3nc4ccccc4[nH]3)CC2)nc1	0.55	-2.4
CCc1c(O)nc(SCc2ccc(F)cc2)[nH]c1=O	0.57	0.28
CCOc1ccc(S(=O)(=O)N/N=C\c2ccc3c(c2)OCO3)cc1	0.86	0.13
O=C(CC1C(=O)NCCN1C(=O)Nc1ccc(C(F)(F)F)cc1)Nc1ccc(F)cc1 (stereo not given)	0.96	-0.12
CCC(c1nc2ccccc2c(=O)n1CCN1CCOCC1)N1C(=O)c2ccccc2C1=O (stereo not given)	0.03	2.1
CNc1nc(Cl)nc(NC(C)(C)C)n1	0.28	1.1
CCCCn1c(SCC(=O)Nc2cc(C)on2)nnc1-c1cccnc1	0.96	-0.83
COc1ccc(S(=O)(=O)NCc2cccnc2)cc1C(=O)Nc1ccccc1	1.9	-0.7
COc1ccc(CCn2c(C)cc(C(=O)CSc3nnnn3-c3ccccc3)c2C)cc1	1.1	-0.59
COc1cccc(CN(CC(=O)NCc2ccc(F)cc2)C(=O)c2ccco2)c1	1.8	0.1
COc1cc(OC)cc(C(=O)NCC(=O)OCc2nc3ccccc3s2)c1	0.85	0.38
Cc1c(NS(=O)(=O)c2ccc(F)cc2)c(=O)n(-c2ccccc2)n1C	0.78	-0.03
CN(C)S(=O)(=O)N1CCN(Cc2ccccc2)CC1	0.44	0.24
COc1ccc(NC(=S)Nc2ccc(OCc3ccccc3)cc2)c(OC)c1	1.3	-0.08
CC/C(=N/NC(=O)c1ccccc1)c1ccc(OCCN2CCOCC2)cc1	0.94	2.6
CCN(CC(=O)Nc1c(F)cccc1F)C(=O)c1ccc(S(=O)(=O)N2CCCC2)cc1	0.54	2.1
CCCn1c(SCC(=O)O)nc2ccccc21	0.08	-1.4
Cc1noc(C)c1COC(=O)[C@@H](NC(=O)c1ccccc1Cl)C(C)C	1.6	-1.9
CCOC(=O)c1ccc(NC(=O)c2cc3c(s2)CCC3)cc1	2	-1.1
O=C(Nc1cc(S(=O)(=O)N2CCOCC2)ccc1N1CCCC1)c1cc(=O)[nH]c2ccccc12	1.4	-0.7
O=c1[nH]c(NCCO)nc2ncn(Cc3ccccc3)c12	0.15	-1.9
COc1cc(Cl)cc(C2NC(=S)NC(c3ccccc3)=C2C(C)=O)c1OCC(=O)O (stereo not given)	0.81	0.34
COCCOCCOCCC(=O)NC1CC2CCC1(C)C2(C)C (stereo not given)	1.7	-0.21
CCc1cccc(NC(=O)CCNS(=O)(=O)c2cccc3nonc23)c1	2.1	0.09
CCOc1ccc2nc(NC(=O)Cn3[nH]c(=O)c4ccccc4c3=O)sc2c1	0.58	0.26
NC(=O)C1CCN(Cc2nc3cc(Cl)ccc3c(=O)[nH]2)CC1	1.9	-0.33
CCC(CO)Nc1ncnc2onc(-c3ccc(F)cc3)c12 (stereo not given)	0.58	0.78
CCc1cccc(NC(=O)Cc2cn(C)c3ccccc23)c1	3.6	1.6
CCn1ccc(=O)c2cc3c(cc21)OCO3	0.4	0.84
COc1ccc2oc(C(=O)OC(C)C(=O)NC3(C#N)CCCCC3)c(C)c2c1 (stereo not given)	1.4	-2.3
O=C(Nc1ccccc1)C1=C[C@H](c2ccc3c(c2)OCO3)C[C@H](OCCCCO)O1	0.04	-0.62
CC1(C)CC(=O)c2cc(OCC(=O)NCc3cccnc3)ccc2O1	0.26	0.28
CCNCc1ccc(OCc2ccccc2F)c(OC)c1	1.3	1.3

Some of the entries so far, with values under each structure.
Fields – KCNQ2 enhance	KCNQ2 enhance baseline
- COc1ccc(NC(=S)Nc2ccc(OCc3ccccc3)cc2)c(OC)c1
  1.3	-0.08
- CC/C(=N/NC(=O)c1ccccc1)c1ccc(OCCN2CCOCC2)cc1
  0.94	2.6
- CCN(CC(=O)Nc1c(F)cccc1F)C(=O)c1ccc(S(=O)(=O)N2CCCC2)cc1
  0.54	2.1
- CCCn1c(SCC(=O)O)nc2ccccc21
  0.08	-1.4
- Cc1noc(C)c1COC(=O)[C@@H](NC(=O)c1ccccc1Cl)C(C)C
  1.6	-1.9
- CCOC(=O)c1ccc(NC(=O)c2cc3c(s2)CCC3)cc1
  2	-1.1
- O=C(Nc1cc(S(=O)(=O)N2CCOCC2)ccc1N1CCCC1)c1cc(=O)[nH]c2ccccc12
  1.4	-0.7
- O=c1[nH]c(NCCO)nc2ncn(Cc3ccccc3)c12
  0.15	-1.9
- COc1cc(Cl)cc(C2NC(=S)NC(c3ccccc3)=C2C(C)=O)c1OCC(=O)O (stereo not given)
  0.81	0.34
- COCCOCCOCCC(=O)NC1CC2CCC1(C)C2(C)C (stereo not given)
  1.7	-0.21
- CCc1cccc(NC(=O)CCNS(=O)(=O)c2cccc3nonc23)c1
  2.1	0.09
- CCOc1ccc2nc(NC(=O)Cn3[nH]c(=O)c4ccccc4c3=O)sc2c1
  0.58	0.26
- NC(=O)C1CCN(Cc2nc3cc(Cl)ccc3c(=O)[nH]2)CC1
  1.9	-0.33
- CCC(CO)Nc1ncnc2onc(-c3ccc(F)cc3)c12 (stereo not given)
  0.58	0.78
- CCc1cccc(NC(=O)Cc2cn(C)c3ccccc23)c1
  3.6	1.6
- CCn1ccc(=O)c2cc3c(cc21)OCO3
  0.4	0.84
- COc1ccc2oc(C(=O)OC(C)C(=O)NC3(C#N)CCCCC3)c(C)c2c1 (stereo not given)
  1.4	-2.3

Additional records:
SMILES	KCNQ2 enhance	KCNQ2 enhance baseline
COc1ccc(CCN(C)C(=O)c2c(C)nn(CC(C)C)c2Cl)cc1OC	0.77	-1
C#CC1CCCCC1NC(=O)Nc1cnccc1C(F)(F)F (stereo not given)	2.4	-0.23
O=c1ccccn1Cc1ccccc1F	0.55	-2.8
Cc1cccc(NC(=O)CSc2nnnn2-c2cccnc2)c1	0.35	-0.07
COc1ccc(-c2noc(CNC(=O)Nc3ccc(F)cc3)n2)cc1	0.89	-0.15
O=C(Nc1cccnc1N1CCOCC1)c1ccco1	1.2	1
O=C(CNc1cccc(C(F)(F)F)c1)N/N=C/C1CCCCC1	1.4	0.98
CC(OC(=O)Cn1[nH]c(=O)c2ccccc2c1=O)C(=O)Nc1ccccc1[N+](=O)[O-] (stereo not given)	0.78	-0.61
COC(=O)CCC(=O)NC(=S)Nc1ccc(S(=O)(=O)Nc2cc(C)on2)cc1	1.1	-0.17
Cc1nc2scc(C)n2c(=O)c1S(=O)(=O)N1CCN(c2cccc(C(F)(F)F)c2)CC1	0.01	-0.34
COc1cccc(N2CCN(C(=O)CN3C(=O)NC(C)(c4ccc5ccccc5c4)C3=O)CC2)c1 (stereo not given)	0.05	-0.35
Cn1nc(-c2ccc(Cl)cc2)c2cc(C(=O)NCCN3CCOCC3)sc21	1.1	-1.3
CC1Sc2ccc(S(=O)(=O)CCC(=O)NC(C)c3ccccc3)cc2NC1=O (stereo not given)	0.48	0.24
COc1ccc(-c2[nH]ncc2CN2CCCN(C(=O)c3ccco3)CC2)cc1F	0.35	0.96
COc1ccc(-c2c(C#N)c(SCC(=O)Nc3ccccc3)nc3c2CCCC3)cc1	0.34	1.8
COC(=O)C1=C(C)N=c2s/c(=C3\C(=O)Nc4ccccc43)c(=O)n2C1c1ccccc1 (stereo not given)	1.8	-1.5
COc1cc2c(=O)n(CC3CCCO3)c(=O)n(CC(=O)Nc3ccc(F)cc3F)c2cc1OC (stereo not given)	0.7	-1.6
CCn1cc(C(=O)N[C@@H](CCSC)C(=O)NCCCO)c(=O)c2cc3c(cc21)OCO3	1.6	1.2
COc1cccc(N2CCN(c3ccc([N+](=O)[O-])cn3)CC2)c1	0.54	2
CCOC(=O)c1c(-c2ccccc2)csc1N1C(=O)Nc2ccccc2N1O	0.45	0.59
CCn1c(C)c(C(C)=O)c(SC)nc1=S	0.88	1.3
Cc1cc(Cl)ccc1NC(=O)COC(=O)c1nc2nccc(C)n2n1	0.67	-1.3
O=C(NCC(c1cccnc1)N1CCOCC1)c1cccs1 (stereo not given)	0.41	-0.08
CC(NC(=O)NC12CC3CC(CC(C3)C1)C2)c1ccc2c(c1)OCO2 (stereo not given)	15*	-0.15*
CCCCCCCC(=O)N/N=C/c1cccnc1	0.85	-0.92
Cc1cc(C)cc(OCC(=O)OCC(=O)Nc2ccc(Cl)cn2)c1	1.7	-0.96
CN(Cc1ccccc1)C(=O)c1cn(C)c2ccc(S(=O)(=O)N3CCCC3)cc2c1=O	1.2	-1.1
COc1ccc(-c2n[nH]c(=S)n2Cc2ccccc2)cc1OC	0.32	1.7
Cc1ncoc1C(=O)N1CCCC(N2CCN(c3cccc(C(F)(F)F)c3)CC2)C1 (stereo not given)	0.03	-0.07
O=C(OC(C(=O)NC1CCCC1)c1ccncc1)C1=Cc2ccccc2OC1 (stereo not given)	0.43	0
COc1ccc(CNC(=O)c2noc(C)c2[N+](=O)[O-])cc1	0.08	0.01
CCCN1Cc2cccc(C(=O)N3CCN(c4ccc(F)cc4)CC3)c2C1=O	1.2	-0.77
CCC(C)(C)NC(=O)C(c1cccn1C)N(C(=O)Cn1nnc2ccccc21)c1ccc(OC)cc1 (stereo not given)	0.48	0.03
CC1CCCC(NC(=O)COC(=O)c2ccccc2Sc2ccccc2C#N)C1C (stereo not given)	0.51	2.6
COc1cc(CN2CCN(S(=O)(=O)c3ccc(NC(C)=O)cc3)CC2)cc(OC)c1O	0.97	0.13
Cc1cc(F)ccc1NCc1ccncc1	0.27	1
O=C(NCCCN1CCCC1)c1ccc2c(Cl)c3c(nc2c1)CCCC3	1.1	1.9
CC(C)C(NS(=O)(=O)c1cccc2nsnc12)C(=O)NCc1ccc2c(c1)OCO2 (stereo not given)	0.68	3.1
Cc1ccc(C(O)Cn2cc([N+](=O)[O-])nc2C)cc1 (stereo not given)	0.93	0.01
Cc1cccc2cc3c(NC(=O)C(C)C)nn(C)c3nc12	0.78	-1.1
COc1ccccc1NC(=O)C(=O)Nc1ccc2c(c1)N(C(=O)C1CC1)CCC2	1.8	0.56
Cc1[nH]n2c(=O)cc(C(C)(C)C)nc2c1-c1ccccc1	4.8	1.7
COc1ccc(-c2cccc(NS(=O)(=O)c3cc([N+](=O)[O-])ccc3C)c2)nn1	0.68	1.2
O=C(Cn1cnc([N+](=O)[O-])n1)N/N=C/c1cccc2ccccc12	2.1	-1.6
O=C(COc1ccc(Cl)cc1Cl)Nc1ccc(CN2CCOCC2)cc1	0.64	0.14
CCN(CC)S(=O)(=O)c1ccc(N2CCOCC2)c(NS(=O)(=O)c2ccc(C(C)C)cc2)c1	0.37	0
COc1ccccc1NC1CCCCC1NS(=O)(=O)c1ccc(C)cc1 (stereo not given)	1.1	0.55
CCCCN(C(=O)CSCc1ccc(C)cc1)c1c(N)n(CCC)c(=O)[nH]c1=O	0.45	-0.06
CC(NC(=S)N1CCN(c2ccccc2)CC1)c1ccccc1 (stereo not given)	0.85	0.12
CC(C)(C)c1ccc(/C=N/NC(=O)C(=O)NCCCN2CCOCC2)cc1	1.4	0.3
CCN1CCCC1CNC(=O)c1cc(S(=O)(=O)CC)c(N)cc1OC (stereo not given)	0.95	-0.05
Cc1cc2nc3n(c2cc1C)CC1CC(C(=O)NCCc2cccs2)N(C)C31 (stereo not given)	0.23	1.4
CC(C)CNC(=O)Nc1ccc(F)c(Cl)c1	3	1.6
COc1ccc(C(C(=O)NC2CCCC2)N(C(=O)c2ccoc2C)c2cc(C)cc(C)c2)cc1 (stereo not given)	0.21	-0.17
O=C(O)C1CCCCC1C(=O)Nc1ccc(F)cc1F (stereo not given)	0.93	2.1
Nc1cccn2c(-c3ccc(Cl)cc3)cnc12	0.16	-1.4
CCC(=O)C1CCCN(C(=O)c2ccc3nc(-c4cccc(OC)c4)oc3c2)C1 (stereo not given)	0.04	0.57
Cc1nc(N2CCCCC2)nc(N2CCCCC2)c1C=O	1.9	0.74
COc1ccc(Nc2nc(N)nc(CSC(=S)N3CCN(C)CC3)n2)cc1	0.45	-0.98
O=[N+]([O-])c1cc(Cl)cc(/C=N/Nc2nc3ccccc3s2)c1O	1.8	-0.39
Additional results follow.
SMILES	KCNQ2 enhance	KCNQ2 enhance baseline
COc1cc(C2N(c3cccc(Cl)c3)C(=O)C3CCCN32)cc(OC)c1OC (stereo not given)	0.29	-0.23
Cc1cccc(C)c1NC(=O)CCCCCNS(=O)(=O)c1ccccc1	1	0.62
COc1ccc(-c2cc3ccccc3n2CC(O)CNC(CO)(CO)CO)cc1 (stereo not given)	1.2	-0.43
Cc1ccc(-n2c(-c3ccc(Cl)cc3)c[n+]3c2CCC3)cc1	1.3	-0.1
Cc1cc(Cl)c(S(=O)(=O)NC2CCCC2)cc1OCC(=O)NC1CCCCC1	0.41	1.7
O=S1(=O)CCC(N=Cc2ccc(-c3ccc(Cl)cc3)o2)C1 (stereo not given)	3.4	-3
CS(=O)(=O)N1CCC(C(=O)Nc2c(F)cccc2F)CC1	0.95	-1.1
O=C(NC(=S)Nc1ccc(NC(=O)c2cccs2)cc1)c1ccco1	0.21	-0.25
C=CCOC(=O)C1=C[C@@H](c2ccccc2)[C@H](CCCO)[C@@H](OCC)O1	0.38	-0.81
O=C(Cn1c(=O)[nH]n(-c2ccccc2)c1=O)N1CCCc2ccccc21	0.44	-1.3
COc1ccccc1NC(=O)NC1CC(=O)N(c2ccc3c(c2)OCCO3)C1 (stereo not given)	0.63	-1
CCOC(=O)N1CCN(C(=O)CSc2nnc(-c3cccc(Cl)c3)o2)CC1	0.99	0.47
CC(C)C[C@H](NC(=O)c1nc[nH]c1C(=O)NCC(=O)OC(C)(C)C)C(=O)OC(C)(C)C	0.25	-0.88
O=c1c(Cc2ccc(Cl)cc2)c(O)ccn1Cc1cccc(Cl)c1	0.02	1.1

Retrieved by structure from the list above:
SMILES	KCNQ2 enhance	KCNQ2 enhance baseline
O=C(Cn1c(=O)[nH]n(-c2ccccc2)c1=O)N1CCCc2ccccc21	0.44	-1.3
CC(C)C[C@H](NC(=O)c1nc[nH]c1C(=O)NCC(=O)OC(C)(C)C)C(=O)OC(C)(C)C	0.25	-0.88
